From PubChem BioAssay
RVFV N-RNA FP – inhibitors of Rift Valley Fever Virus nucleocapsid-RNA interaction. P21700. RVFV N-RNA binding, fluorescence polarization; hits give low values. % bound, % (no concentration beside the values). actives 0.1% (n = 20,000). AID 651828;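 active = between 0 and 58% in either replicate with normal brightness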;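 note: 100 nL library stock added to about 12 µL; 100% = protein and probe without compound and 0% = probe alone; numbers are from one replicate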
Target sequence (P21700 whole entry, looked up): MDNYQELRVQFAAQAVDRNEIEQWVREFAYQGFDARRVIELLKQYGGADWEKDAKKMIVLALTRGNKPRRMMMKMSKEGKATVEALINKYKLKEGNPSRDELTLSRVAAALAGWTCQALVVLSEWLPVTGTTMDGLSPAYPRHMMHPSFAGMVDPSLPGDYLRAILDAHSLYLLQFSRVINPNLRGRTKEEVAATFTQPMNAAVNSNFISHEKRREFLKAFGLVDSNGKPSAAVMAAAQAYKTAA
The depositor's hits bear a star; & = joins results of further samples. The list is partial, so the mix of outcomes need not match the whole.

SMILES	RVFV N-RNA FP
CCCn1cnc2cc(NCc3ccc(OCC)cc3)ccc21	95
CC(=O)N(C)c1ccc(N=Cc2ccc(C)o2)cc1	90
CCn1c(O)c(C=Nc2ccc(N3CCOCC3)c(Br)c2)c(=O)n(CC)c1=S	87
CCNC(=O)N1CCN(CCCC(c2ccc(F)cc2)c2ccc(F)cc2)CC1	96
COC(=O)c1sccc1NC(=O)c1ccc2nonc2c1	95
COC(=O)C1=C(C)N(C2CCCC2)C(=O)C1(NC(C)=O)C(F)(F)F (stereo not given)	94
c1ccc(CN(Cn2nnc3ccccc32)Cn2nnc3ccccc32)cc1	105
Cc1cccc(C2N(Cc3ccccc3)CCCN2Cc2ccccc2)n1	96
CCOc1ccc(/C=C/C(=O)NC(C)C)cc1	93
COc1ccc(N2CCN(C(C)=C3C(=O)c4ccccc4C3=O)CC2)cc1	96
O=C(NCc1ccc2c(c1)OCO2)c1ccc(N2CCCCS2(=O)=O)cc1	91
O=C(C1CCC(Cn2c(=S)[nH]c3ccccc3c2=O)CC1)N1CCCC1 (stereo not given)	100
O=C1CCC(=O)N1CN(Cc1ccccc1)Cc1ccccc1	95
O=C1NC(=O)N(C2CCCCC2)C(=O)/C1=C/c1ccc(O)cc1	89
Cc1csc(SCC(=O)c2cc3ccccc3oc2=O)n1	115
CC(NC(=O)C1CC2CCCC(C1)C2=O)c1ccccc1 (stereo not given)	98
O=C(Cn1nc2n(c1=O)-c1ccccc1SC2)c1cccs1	94
NC(=O)NNc1cccc2cccnc12	102
Cc1nc(Nc2nc3ccccc3s2)[nH]c(=O)c1Cc1ccccc1	94
CCc1c(C)nc(N)nc1N1NC1=S	96
Cc1ccc(/C=N/N=C2\SCC(=O)N2CC2CC2)cc1	96
Cc1ccccc1-c1coc2cc(O)ccc2c1=O	97
COC(=O)c1ccc(COn2c(=O)c[n+]([O-])c3ccccc32)cc1	96
O=C(NN=Cc1ccc(O)cc1)c1ncn[nH]1	89
CC1SCC(=O)N(CC(=O)Nc2ccc3c(c2)OCO3)C1=O (stereo not given)	102

In a second layout: results already given.
| structure | RVFV N-RNA FP |
| --- | --- |
| CC(NC(=O)C1CC2CCCC(C1)C2=O)c1ccccc1 (stereo not given) | 98 |
| O=C(Cn1nc2n(c1=O)-c1ccccc1SC2)c1cccs1 | 94 |
| NC(=O)NNc1cccc2cccnc12 | 102 |
| Cc1nc(Nc2nc3ccccc3s2)[nH]c(=O)c1Cc1ccccc1 | 94 |

Quoted at random: twelve records from the list, in no set order.
SMILES	RVFV N-RNA FP
Cc1nc(Nc2nc3ccccc3s2)[nH]c(=O)c1Cc1ccccc1	94
Cc1ccc(/C=N/N=C2\SCC(=O)N2CC2CC2)cc1	96
c1ccc(CN(Cn2nnc3ccccc32)Cn2nnc3ccccc32)cc1	105
NC(=O)NNc1cccc2cccnc12	102
CC(=O)N(C)c1ccc(N=Cc2ccc(C)o2)cc1	90
Cc1csc(SCC(=O)c2cc3ccccc3oc2=O)n1	115
CCn1c(O)c(C=Nc2ccc(N3CCOCC3)c(Br)c2)c(=O)n(CC)c1=S	87
O=C(Cn1nc2n(c1=O)-c1ccccc1SC2)c1cccs1	94
COC(=O)c1sccc1NC(=O)c1ccc2nonc2c1	95
CCc1c(C)nc(N)nc1N1NC1=S	96
COC(=O)c1ccc(COn2c(=O)c[n+]([O-])c3ccccc32)cc1	96
CCCn1cnc2cc(NCc3ccc(OCC)cc3)ccc21	95

(more compounds)
SMILES	RVFV N-RNA FP
Cc1ccc(C2c3c(oc4ccccc4c3=O)C(=O)N2Cc2ccco2)cc1 (stereo not given)	108
OC[C@@H](O)[C@@H](O[C@@H]1O[C@H](CO)[C@H](O)[C@H](O)[C@H]1O)[C@H](O)[C@@H](O)CO	101
CCN=C1N=C(c2ccccc2)N=P(NCC)(NCC)N1	95
COc1ccc(CCNC(=O)Cn2c(-n3nc(C)cc3C)nc(C)c(C)c2=O)cc1OC	107
Cc1nc(NC(=O)C2CC3CCCC(C2)C3=O)sc1C (stereo not given)	92
N/C(COc1ccc(-c2nnco2)cc1)=N\OC(=O)c1ccc(Cl)cc1	100
CCN(CC)C(=O)NCC12CC3CC(CC(C3)C1)C2	90
CC(=O)N(CC(O)CO)c1c(I)c(C(=O)NCCO)c(I)c(C(=O)NCC(O)CO)c1I (stereo not given)	97
CC(Sc1ncnc2c1oc1ccccc12)c1ccccc1 (stereo not given)	99
Cn1c(=O)c(=O)[nH]c2cnccc21	93
COC(=O)c1ccc(S(=O)(=O)NCCc2ccccc2OC)n1C	90
CC(=O)Oc1cc2c(C(=O)NCc3ccccn3)c(C)oc2c2ccccc12	100
CC(NC(=O)COc1ccc(Cl)cc1)C(=O)O (stereo not given)	98
O=C(CN1CCC(NC(=O)c2ccccc2)CC1)Nc1ccccc1	97
CCCSCC(=O)Nc1ccc(C)cc1C	89
C=C1C2(C(=O)Nc3ccc(C(=O)OC)cc3)CCC(C2)C1(C)C (stereo not given)	93
O=C(CSc1ncnc2c1nnn2Cc1ccccc1F)NCc1ccco1	107
CN=c1scc(-c2ccc(Cl)cc2)n1C	96
Cc1onc(-c2c(Cl)cccc2Cl)c1NC(=O)N(C)C1CCCCC1	99
O=C1OC(C(=O)Nc2ccccc2)Cc2ccccc21 (stereo not given)	102
CC(=O)Nc1ccccc1NC(=O)CN(C)S(=O)(=O)c1ccccc1	90
COc1ccc(CCN(C)CCCC(C#N)(c2cc(OC)c(OC)c(OC)c2)C(C)C)cc1OC (stereo not given)	99
O=C(Cn1nc2n(c1=O)-c1ccccc1SC2)N/N=C/c1ccncc1	93
CC(Sc1ncn[nH]1)C(=O)Nc1ccc(Cl)cc1 (stereo not given)	90
COc1ccc2oc(=O)c(C(=O)NC3CCCCC3C)cc2c1 (stereo not given)	100
Going on with the list.
SMILES	RVFV N-RNA FP
CCOC(=O)C1CCc2nc3ccccc3c(=O)n21 (stereo not given)	99
Nc1nc(-c2ccco2)nc(-c2ccco2)n1	95
COC(=O)c1ccc(COC(=O)CNS(=O)(=O)c2ccccc2)cc1	92
COc1ccccc1C(=O)Nc1ccc(-c2nc3ccccc3o2)cc1	91
Cc1ccccc1NC(=O)N1CCC(C(N)=O)CC1	90
CC(=O)NCC(c1ccco1)N1CCN(c2ccccc2)CC1 (stereo not given)	106
CC(=O)Oc1ccc(C)cc1NC(=O)CC1SC(=Nc2ccc(F)cc2)N(C)C1=O (stereo not given)	86
CC(=O)N(C)Cc1nc2ccccc2n1C	101
Nc1c2c(nc3ccccc13)CCCC2	93&98&94
CN1CCN(C2=Nc3cc(F)ccc3Cc3ccccc32)CC1	95&85
C=CCn1c(=O)c2c(C)c(C)sc2n2c(Nc3ccccc3)nnc12	100
O=C1NC(=O)/C(=C/c2ccc(-c3ccc(F)cc3O)o2)S1	102&97
C=CCNS(=O)(=O)c1cc2c3c(c1)CCN3C(=O)CC2	95
O=C(Cc1ncc(-c2ccccc2)cn1)c1ccccc1	92
CCOC(=O)/C(C#N)=C/NC1CCN(Cc2ccccc2)CC1	98
N/C(COc1cc(Cl)cc(Cl)c1)=N\O	101
CC(C)NCC(O)COc1ccc(CCOCC2CC2)cc1 (stereo not given)	92&95&103&91
COc1ccc(C(=O)Nc2ccc(CN3CCCCC3)cc2)cc1	99
O=C(CCn1c(=O)oc2ccccc21)N(Cc1ccccc1)c1ccccc1	93
Cn1c(C(=O)O)ccc1S(=O)(=O)N1CCN(c2ccc(C(F)(F)F)cn2)CC1	109
O=C(NC(CO)C(O)c1ccc([N+](=O)[O-])cc1)C(Cl)Cl (stereo not given)	98
COc1ccc(N2CCN(C(=O)c3ccccc3OC)CC2)cc1	94
Cc1c(C#N)c(N)n(Cc2cc(C(F)(F)F)cc(C(F)(F)F)c2)c1C	106
CC(C)(C)C(=O)/C=C/Nc1ccc(F)cc1	93
O=C(Cc1ccc(Cl)cc1)Nc1ccccc1C(=O)N1CCOCC1	89

Another view of 4 compounds above.
smiles,RVFV N-RNA FP
C=CCn1c(=O)c2c(C)c(C)sc2n2c(Nc3ccccc3)nnc12,100
CCOC(=O)/C(C#N)=C/NC1CCN(Cc2ccccc2)CC1,98
COC(=O)c1ccc(COC(=O)CNS(=O)(=O)c2ccccc2)cc1,92
C=CCNS(=O)(=O)c1cc2c3c(c1)CCN3C(=O)CC2,95

Next section:
SMILES	RVFV N-RNA FP
COC(=O)c1noc(C)c1-c1ccnn1C(=O)c1ccc(Cl)cc1	92
COc1cc(OC)c(S(=O)(=O)N(C)c2ccccc2)cc1S(=O)(=O)N(C)c1ccccc1	100
N#Cc1ccc(OCCOCCn2cncn2)cc1	93
Cc1cccc(C)c1N1CCN(C(=O)N2CCCCC2)CC1	106
O=C1CNC(=S)N1CCc1ccc(O)c(O)c1	88
c1ccc2c(c1)ncn2CCN1CCOCC1	95
COC(=O)CN(n1cnnc1)S(=O)(=O)c1ccc(C)cc1	98
O=c1c2ccccc2nc2n1CCc1c-2[nH]c2ccccc12	93
CC12CCC(C/C1=N\Nc1nc(O)c(C3=c4ccccc4=NC3=O)s1)C2(C)C (stereo not given)	98
Clc1cc(N2CCOCC2)ncn1	113
O=c1c2c([nH]c(=S)n1-c1ccc(F)cc1)CCS2	105
CC(=O)OC[C@H]1O[C@@H](n2ncc(=O)[nH]c2=O)[C@H](OC(C)=O)C1OC(C)=O (stereo not given in full)	98
Cc1ccc(Sc2c(C)n[nH]c2C)cc1	94
COc1ccc(/C=C2\SC(N)=NC2=O)cc1OC	96
CC(C)(C)C(=O)/C=C/Nc1ccccc1C(N)=O	100
CCOC(=O)C1=C(C)NC2=C(C(=O)C(C(=O)OCC)C(c3ccco3)C2)C1c1ccc2c(c1)OCO2 (stereo not given)	99
Cn1c(SCc2ccccc2Cl)nnc1C(O)C(O)c1nnc(SCc2ccccc2Cl)n1C (stereo not given)	101
CN(C(=O)c1cccc(S(=O)(=O)N(C)C)c1)c1ccccc1	95
CC(=O)OC1COC(Oc2ccc(C(C)(C)C)cc2)C(OC(C)=O)C1OC(C)=O (stereo not given)	92
COc1ccc(NC2CCN(C3CC(=O)N(c4ccc(Cl)cc4)C3=O)CC2)cc1 (stereo not given)	97
CCc1ccc(NC2=NS(=O)(=O)c3ccccc32)cc1	95
C/C(=N\NC(N)=S)c1cccnc1	85
CC(C)NC(=S)NC(=O)c1cccnc1	95
O=C1NCC(COc2ccc3ccccc3c2)O1 (stereo not given)	93
Cc1sc(NC(=O)C2CCCCC2)c(C(N)=O)c1C	94
Next section:
SMILES	RVFV N-RNA FP
CS(=O)(=O)c1cccc(S(=O)(=O)NCc2ccco2)c1	103
CCCCN1Cc2c(n(CC(=O)OCC)c3cc(-c4ccccc4)nn3c2=O)C1=O	98
CN(C)CCN(Cc1ccccc1)Cc1ccc(O)cc1	96
Cc1ccccc1CN1C=C(C(N)=O)C(C(F)(F)F)CC1 (stereo not given)	89
CCc1ccc(NC(=O)CCCN2C(=O)CCC2=O)cc1	95
CCCCc1nnc(SCC(=O)N2CCc3ccccc32)n1C	87
CCc1ccc(C=C2C(=O)N(C)C(=O)N(C)C2=O)cc1	92
CCC(C)C12CN3CCN(CC(C)(C3)C1O)C2 (stereo not given)	93
C#CCn1c(=NC(=O)c2ccccc2)sc2cc(S(N)(=O)=O)ccc21	97
Cc1c(O)ccc(C(=O)CN2CC(C)OC(C)C2)c1O (stereo not given)	102
N#Cc1cccnc1Br	102
Cc1ccc(CNC(=O)c2ccccc2N(C)S(C)(=O)=O)cc1	105
COc1ccc(S(=O)(=O)N(CC(N)=O)Cc2ccccc2)cc1C	88
CC1=C(C)C(=O)C(C(CCCCCC(=O)O)c2ccccc2)=C(C)C1=O (stereo not given)	101
O=C(Cc1ccccc1)NCC(=O)OCc1ccccc1F	96
N=C1SCCN1CC(=O)c1ccc(O)cc1	106
CSCc1nnc(NC(=O)c2ccc(S(=O)(=O)N(C)Cc3ccccc3)cc2)o1	97
CCOC(=O)N1CCN(Cc2ccc(Cl)cc2)CC1	99
O=C(COc1ccc2ccccc2c1)NN1CCCCC1	92
CCOC(=O)NN=C1c2ccccc2-c2ccccc21	100
CC(C)CC(=O)NC(=S)N1CCCCCC1	99
Cc1oc2c(Cl)c(Cl)c(O)c(CN(C)C)c2c1C(=O)c1ccc(Cl)cc1	90
CN(C)CCN(C)C1CCc2ccccc2C1 (stereo not given)	97
C=CCN(CC=C)S(=O)(=O)c1ccc(C(=O)N2CC(C)CC(C)C2)cc1 (stereo not given)	86
O=c1ncc(F)c[nH]1	94
The listing continues.
SMILES	RVFV N-RNA FP
CC1CC(=O)N(c2ccccc2)N1 (stereo not given)	93
CCOC(=O)CSc1nnc(Cc2ccc(OCC)cc2)n1C	100
COc1ccccc1C(=O)ON1C(=O)c2ccccc2C1=O	95
CC(C)(C)N(Cc1ccccc1)C(=O)COc1ccccc1	95
CCOC(=O)c1c(NC(=O)c2cc(-n3cnnc3)ccc2Cl)sc2c1CCCC2	100
c1ccc2c(c1)CN1CCCCN1C2	100
CC(C)Cn1c(=N)c(C#N)cc2c(=O)n3ccccc3nc21	91
COC(=O)c1cc(=O)n(-c2ccccc2C(F)(F)F)[nH]1	97
O=C(Cc1ccccc1Cl)Nc1ccccn1	96
Cc1ccccc1NC(=O)CSCc1ccccc1	93
Clc1ccc(COn2nnc3ccccc32)cc1	100
CCC(C)/C(=N\O)c1ccccc1 (stereo not given)	99
Cc1cc(NC(=O)c2ccccc2F)cc(C)c1OCC(=O)N1CCOCC1	109
CCCCC1(C)OC(=O)C(=Cc2ccc(O)cc2)C(=O)O1 (stereo not given)	98
COC(=O)NC(O)C(=O)c1ccccc1 (stereo not given)	101
CSc1nnc2c(n1)[nH]c1ccccc12	95
CS(=O)(=O)Nc1nnc(SCCCc2ccccc2)s1	92
C=CCn1c(O)c(C2=c3ccccc3=NC2=O)c2ccccc21	96
Cc1cccc(C(=O)N(C(=O)c2cccc(C)c2)c2nnnn2C)c1	92
CCc1c(C(=O)NCc2cnn(C)c2)csc1C	96
CN(C)c1ccc(/C=N/NC(=S)NC(C)(C)C)cc1	94
Cc1onc(-c2ccccc2)c1C(=O)N1CCN(C(=O)C2COc3ccccc3O2)CC1 (stereo not given)	110
CCN(CC1COc2ccccc2O1)S(=O)(=O)c1ccc(C)cc1 (stereo not given)	92
CNC(=O)CN(c1cc(C)ccc1C)S(C)(=O)=O	90
